KCNQ2 pot = potentiators of rat KCNQ2 potassium channel; B-score at 10 µM; AID 2239, 2010; Potassium voltage-gated channel subfamily KQT member 2 (Rattus norvegicus), O88943; 310,000 compounds, 0.54% hits; CHO-K1 KCNQ2, FluxOR thallium flux fluorescence; stronger effect = higher value;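 active = fluorescence ratio B-score at least 3 SD of library B-scores, with initial fluorescence B-score within 3 SD, cut at about 5.3 in these data; same plate scores as AID 2156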;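 note: B-score of peak minus minimum over baseline fluorescence ratio after K+ and Tl+ stimulus; positive B-score means potentiation of KCNQ2 with more thallium influx and brighter signal; only the inactives scoring about 0 or higher are listed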
Target sequence (O88943 whole entry, looked up): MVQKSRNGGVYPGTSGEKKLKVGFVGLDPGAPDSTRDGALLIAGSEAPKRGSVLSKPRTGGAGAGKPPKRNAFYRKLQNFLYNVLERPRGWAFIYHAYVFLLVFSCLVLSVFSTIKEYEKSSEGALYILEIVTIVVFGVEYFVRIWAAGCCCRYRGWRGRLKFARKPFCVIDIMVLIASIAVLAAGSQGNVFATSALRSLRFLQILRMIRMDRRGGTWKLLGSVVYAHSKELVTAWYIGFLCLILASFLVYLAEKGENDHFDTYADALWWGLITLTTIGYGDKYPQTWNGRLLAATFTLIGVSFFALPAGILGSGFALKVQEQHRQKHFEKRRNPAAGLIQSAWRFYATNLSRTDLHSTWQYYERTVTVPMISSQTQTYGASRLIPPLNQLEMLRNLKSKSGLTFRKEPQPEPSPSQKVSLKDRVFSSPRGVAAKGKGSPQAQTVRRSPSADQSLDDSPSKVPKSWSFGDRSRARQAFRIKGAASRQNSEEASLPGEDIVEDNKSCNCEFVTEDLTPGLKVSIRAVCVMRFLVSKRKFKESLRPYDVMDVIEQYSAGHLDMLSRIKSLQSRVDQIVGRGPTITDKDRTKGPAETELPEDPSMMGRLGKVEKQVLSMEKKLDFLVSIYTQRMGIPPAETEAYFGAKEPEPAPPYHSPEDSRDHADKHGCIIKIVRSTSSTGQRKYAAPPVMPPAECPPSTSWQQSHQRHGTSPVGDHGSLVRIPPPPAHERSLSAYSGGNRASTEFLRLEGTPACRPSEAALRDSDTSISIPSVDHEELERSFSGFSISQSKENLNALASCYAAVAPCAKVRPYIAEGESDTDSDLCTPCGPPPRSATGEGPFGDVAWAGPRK
KCNQ2 pot baseline = also measured in KCNQ2 pot; calls as there; B-score; compound at 10 µM; measured here: initial fluorescence intensity artifact check;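 brightness before thallium and not channel activity; 0 = typical well and far values either way flag optical interference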
Starred values were filed as active, the others as inactive.

Structure	KCNQ2 pot	KCNQ2 pot baseline
Cc1nn(C)c(C)c1C1C(C#N)=C(N)OC2=C1C(=O)CC(C)(C)C2 (configuration not stated)	1	-1.6
O=c1ccc2c(o1)/C(=C/C=C(Cl)Cl)CCC2	0.43	-0.05
CN(C)S(=O)(=O)c1cc(NC(=O)c2ccc(-n3ccnc3)c([N+](=O)[O-])c2)ccc1Cl	1.8	2.7
c1ccc(CNC2=NCCCC2)cc1	1.8	-0.09
O=C(Cc1cccc(C(F)(F)F)c1)Nc1ccc(S(=O)(=O)N2CCCC2)cc1	2.1	0.73
COn1c(=O)c(-c2ccccc2)[n+]([O-])c2ccccc21	1	0.97
O=C(c1ccc(NC(=O)C2(c3ccccc3)CCCC2)cc1)N1CCOCC1	0.02	1.2
CC(C)c1nnc(NC(=O)CCC(=O)Nc2ccc(Cl)cc2)s1	0.13	0.05
C/C(=N\NC(=O)c1ccc(F)cc1)c1ccc(N2CCOCC2)cc1	0.03	0.18
COc1ccc(NC(=O)CCS(=O)(=O)c2cc3c(cc2Cl)NC(=O)CO3)cc1OC	0.99	3.2
NC(=O)c1ccc(N=Nc2c(O)c3ccccc3[nH]c2=O)cc1	1.6	0.05
Cc1cc(C)nc(-n2ncc(C#N)c2N)n1	1.3	0.44
CCOC(=O)C1=C(CCl)NC(=O)NC1c1ccc2c(c1)OCO2 (configuration not stated)	0.89	-0.04
O=C(/C=C/c1c(F)cccc1Cl)Nc1ncccn1	1.6	-0.03
CNc1nnc(CSc2nc3ccccc3s2)s1	0.56	2.2
COc1ccc(NC(=O)c2cc(S(=O)(=O)N3CCOCC3)cn2C)cc1Cl	2.4	-2.2
O=C(N/N=C/c1ccc(N2CCCC2)c([N+](=O)[O-])c1)c1cccnc1	2	-1.3
COc1ccc(COC[C@H](C)[C@H](O)[C@@H](C)[C@H]2OC(=O)[C@@H]2C)cc1	1.1	-0.86
O=C(Nc1cccc(C(F)(F)F)c1)c1cccnc1	1.8	-0.16
O=C(c1ccco1)N1CCN(C(=O)c2ccc(CS(=O)c3ccc(Cl)cc3)o2)CC1 (configuration not stated)	2.9	-1.9
CN(C)CCNC(=O)c1onc(CSc2ccncc2)c1C(=O)NCCN(C)C	0.73	0.61
Cc1cccc(Cc2cnc(NC(=O)c3ccc(C)o3)s2)c1	0.62	-0.7
COc1ccc(C(=O)CCC(=O)NC2=NCCS2)cc1	0.43	0.16
O=C(CCc1ccccc1)Nc1cccc(-c2nnc(-c3ccco3)o2)c1	0.02	3.6
COc1ccc(NC(=O)C/C(C)=N/NC(=O)c2ccccn2)c(OC)c1	0.92	0.65
COc1cc2c(cc1OC)CN(C(=O)Cn1ccccc1=O)CC2	0.51	-0.13
CCOc1ccc(CC(=O)NCC2(N3CCCCC3)CCCCC2)cc1	0.55	1.3
COc1ccccc1NC(=O)CSc1nnc(C2CCCCC2)o1	2.2	-0.01
CCN(Cc1ccccc1)c1ccc(/C=N/NC(=O)c2cccc(S(=O)(=O)N3CCOCC3)c2)cc1	0.46	-0.77
N#CCSc1ncnc2ccccc12	0.05	-0.09

Three compounds from above, ordered by molecular weight, low to high:
Structure	KCNQ2 pot	KCNQ2 pot baseline
COn1c(=O)c(-c2ccccc2)[n+]([O-])c2ccccc21	1	0.97
O=C(/C=C/c1c(F)cccc1Cl)Nc1ncccn1	1.6	-0.03
CN(C)S(=O)(=O)c1cc(NC(=O)c2ccc(-n3ccnc3)c([N+](=O)[O-])c2)ccc1Cl	1.8	2.7

Further compounds follow:
Structure	KCNQ2 pot	KCNQ2 pot baseline
C[C@H](NC(=O)C(c1ccccc1)c1ccccc1)c1ccccc1	2.7	0.01
CCOCc1nnc(NC(=O)c2ccc(NC(C)=O)cc2)s1	1.5	-1.3
O=C1c2ccccc2C(=O)N1CCc1c[nH]c2ccc(O)cc12	1.2	-0.27
O=C(NCC(O)COc1ccc([N+](=O)[O-])cc1)Nc1ccccc1 (configuration not stated)	0.65	0.07
Cc1c(N=Nc2ccc(N(C)C)cc2)c(=O)n(-c2ccccc2)n1C	0.41	-1.2
Cc1nn(CCCC(=O)Nc2ccccn2)c(C)c1[N+](=O)[O-]	1.2	-0.66
CCC(=O)N(Cc1cc2ccccc2[nH]c1=O)c1ccc(OC)cc1	0.9	-1.5
Cc1ccccc1C(=O)N1CCN(c2ncnc3c2cnn3-c2ccccc2)CC1	2.8	0.83
COc1ccc(CNC(=O)C2CCN(S(=O)(=O)N3CCCCC3)CC2)c(OC)c1	0.45	-0.03
CC(C)C[C@@H](CSc1ccc(Br)cc1)N1CCN(C)CCC1=O	0.68	-0.86

Entries of single compounds as entered above. Screens in order: KCNQ2 pot, KCNQ2 pot baseline
COc1ccc(CNC(=O)C2CCN(S(=O)(=O)N3CCCCC3)CC2)c(OC)c1 is listed with 0.45, -0.03
Cc1nn(CCCC(=O)Nc2ccccn2)c(C)c1[N+](=O)[O-] is listed with 1.2, -0.66
CCOc1ccc(CC(=O)NCC2(N3CCCCC3)CCCCC2)cc1 is listed with 0.55, 1.3
O=C(Nc1cccc(C(F)(F)F)c1)c1cccnc1 is listed with 1.8, -0.16
CC(C)c1nnc(NC(=O)CCC(=O)Nc2ccc(Cl)cc2)s1 is listed with 0.13, 0.05

Following part.
Structure	KCNQ2 pot	KCNQ2 pot baseline
COc1ccc(CCN2C(=O)CN(Cc3ccccc3)CC2=O)cc1OC	0.11	0.07
CC(C)(C)c1ccc(OCC(=O)NCCN2CCOCC2)cc1	0.02	0.21
CC(Nc1c[nH]c(=O)[nH]c1=O)c1ccccc1 (configuration not stated)	1.1	2.8
Cc1ccc(N(C(=O)CNC(=O)c2ccco2)C(C(=O)NC2CCCC2)c2cccnc2)c(C)c1 (configuration not stated)	0.35	0.64
COCCn1nnnc1C(CC(C)C)N1CCN(C(=O)c2ccco2)CC1 (configuration not stated)	1.1	0.24
COC(=O)CSC1=C(C#N)C(c2ccccc2F)CC(=O)N1 (configuration not stated)	2.5	-0.14
O=C(Nc1ccc(N2CCN(C(=O)c3ccco3)CC2)cc1)c1ccc(F)cc1	1.1	1.6
O=C(CSc1nc(-c2ccccc2)c(-c2ccccc2)o1)Nc1nnc(-c2ccccc2)s1	0.53	-3.3
Cc1cc(NC(=O)CSc2nc(N)c(NC(=O)c3ccccc3)c(=O)[nH]2)no1	1.4	0.16
Cc1c(C)c(C)c(S(=O)(=O)Nc2ccc3[nH]c(=O)[nH]c3c2)c(C)c1C	0.06	1.1
Cn1cccc1-c1cc(C(=O)N/N=C/c2cccc(O)c2)[nH]n1	1.1	0.43
CN(Cc1ccccc1)C(=O)CN1C(=O)c2ccc([N+](=O)[O-])cc2C1=O	0.53	-0.43
O=C1CN(C(=O)COc2ccccc2)c2ccccc2N1	0.29	0.01
O=C(Nc1nncs1)c1c(F)c(F)c(F)c(F)c1F	0.52	0.93
O=C(C1=C(O)C(=O)N(CCN2CCOCC2)C1c1ccccn1)c1cccs1 (configuration not stated)	0.06	-1.2
CC(C)Oc1ccc(CCc2nnc(SCC(=O)O)n2-c2ccccc2)cc1	0.29	0
CC(C)N(CCCNC(=O)c1ccc(CS(=O)(=O)c2c(Cl)cccc2Cl)o1)Cc1ccccc1	1.1	0.65
CC(=O)c1cccc(Nc2nc(-c3cccc([N+](=O)[O-])c3)cs2)c1	0.64	-1.1
CC(Oc1ccc(Cl)cc1)C(=O)NNC(=S)NC(=O)c1ccco1 (configuration not stated)	0.23	0.84
Cc1cccc(Cc2nnc(CCC(=O)N3CCCC(CN4CCOCC4)C3)o2)c1 (configuration not stated)	0.73	0.33
O=C(Nc1cccc(-c2csc(Nc3cccc(C(F)(F)F)c3)n2)c1)c1ccccc1	1.3	0.11
COc1ccccc1NC=C1C(=O)OC(C)(C)OC1=O	0.87	-0.15
COc1ccc(C(=O)NC(=S)NCC2CCCO2)cc1 (configuration not stated)	0.5	2.1
O=S(=O)(c1ccc(F)cc1)N1CCC2(CC1)OCCO2	1.1	-0.25
C/C(=N\NC(=O)c1cccc(C)c1)c1ccc(N2CCOCC2)cc1	0.42	0.57
CC(=O)Nc1c([N+](=O)[O-])cc2[nH]c(=O)[nH]c2c1[N+](=O)[O-]	0.77	2.6
Cc1ccccc1P(=O)(CO)c1ccccc1C	0.86	0.01
O=C(Nc1cc([N+](=O)[O-])ccc1O)c1ccc2c(c1)C(=O)N(Cc1ccco1)C2=O	0.4	0.03
Cc1nc2ccc(S(=O)(=O)NC(C(=O)NC3CCCC3)C(C)C)cc2s1 (configuration not stated)	0.52	1.2
CC(C)c1cc(NC(=O)CSc2nnc(-c3ccccc3F)n2C)on1	0.3	0.01
Cc1nc(NC(=O)C2CCCCC2C(=O)O)sc1C (configuration not stated)	0.51	1.7
Cn1ccnc1-c1nnn(-c2ccc(Cl)c(Cl)c2)n1	0.36	0.27
O=C(NCCCO)c1ccc2[nH]c3c(c2c1)CCCC3	1.5	-1.9
CC(Sc1ccsc1[N+](=O)[O-])C(=O)NCc1ccccc1 (configuration not stated)	0.2	-0.05
Cc1ccc(/C=C2/SC(=S)N(CCC(=O)N3CCN(c4ccccc4)CC3)C2=O)cc1	0.17	2.2
C[C@H](NS(=O)(=O)c1ccc(Cl)c(Cl)c1)C(=O)OCc1cc(=O)n2cc(Br)ccc2n1	0.24	-1.1
CCc1ccccc1NC(=S)N1CCC(NC(=O)c2ccc(OC)cc2)CC1	0.4	1.8
CN1CCN(C(=O)C2CCN(S(=O)(=O)c3cnc[nH]3)CC2)CC1	0.69	3.4
CCCc1[nH]c(=O)c(C#N)c2c1CCCC2	1.4	0.11
COc1ccc2c3c(c(=O)oc2c1OCC(=O)C(C)(C)C)CCCC3	0.58	-0.5
O=C(NNC(=O)c1ccc[nH]1)c1cccc(C(F)(F)F)c1	2	-0.91
Cc1ccc(CCNC(=O)C2CCCN(S(=O)(=O)c3cnc[nH]3)C2)cc1 (configuration not stated)	1.6	-0.01
O=C(O)c1cccc(C(=O)c2cccc(C(=O)O)c2)c1	2.3	0.56
COc1cc(C(=O)Oc2cccc(/C=N/NC(=O)c3cc(C)[nH]n3)c2)cc(OC)c1OC	0.18	1.8
S=C(NCCCN1CCOCC1)Nc1ccc(Nc2ccccc2)cc1	0.39	0.64
Cn1c(SCc2ccc3c(c2)OCO3)nnc1-c1ccccc1	1.3	-0.74
COC(=O)c1cccc(C(=O)N2CCC(CO)(CCc3ccccc3)CC2)c1	1.5	0
O=C(Nc1cccc2ccccc12)NC1Cc2ccccc2C1	0.66	0.94
O=C(CCc1ccccn1)NC1CCCc2c1cnn2-c1ccc(F)cc1F (configuration not stated)	0.65	-0.52
CC(=O)Oc1ccc(-c2cccc(C(=O)N3CCCCC3)c2)cc1	2.1	0.34

(next part)
Structure	KCNQ2 pot	KCNQ2 pot baseline
O=C1N=C(N2CCCC2)S/C1=C\C=C\c1ccccc1	1.2	-2.3
C[n+]1cccc(C2C(C#N)=C(N)Oc3c2ccc2ccccc32)c1 (configuration not stated)	0.37	-0.28
O=C(CNC(=O)c1ccccc1F)NCc1cccnc1	1.1	-0.19
Cc1ccc2c(c1)C(c1ccccc1)N(C(=O)c1ccccc1)CC(=O)N2 (configuration not stated)	1.2	-0.01
O=Cc1cccc(Oc2ccc([N+](=O)[O-])cc2[N+](=O)[O-])c1	2.2	-1.5
Cc1c(C(=O)NCCCN2CCCC2=O)oc2c(Cl)cccc12	1.1	-0.38
CN(CC1CCCO1)S(=O)(=O)c1ccc(C(=O)Nc2nccs2)cc1 (configuration not stated)	0.01	1.1

Screening results (PubChem)

Some of the compounds tested; count on the stated rates, not on these rows.
